# RanGTP-Impb inh = disruptors of Ran-importin-beta complex formation – biochemical, FRET, CFP-Ran, YFP-importin-beta, homogeneous, primary screen; inhibition, % (no concentration beside the values); actives 1.1% (n = 300,000); cell-free CFP-Ran/YFP-importin-beta FRET ratio; AID 2216;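 active = most replicates above 15%; inconclusive = exactly half above 15%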;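 note: 0% = DMSO wells and 100% = Ran loaded with GDP instead of GTP; wells of about 40 µL received 100 nL stock; the first replicate is given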
# HNF4A DNA FP = change in binding of human HNF4 alpha to DNA; P41235; HNF4a-FITC DNA binding, fluorescence polarization, 1 h; activity change, % at 10 µM; actives 0.3% (n = 360,000); AID 1224865; in the data active = activity change above about 30%, passing the limit was not always enough;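 note: controls were the assay level and a saturating level of protein; the project sought stronger binding though the title names inhibitors; some compounds called inactive have numbers as strong as hits; positive values seem to mean higher polarization but the record does not say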
# Target sequence (P41235 whole entry, looked up): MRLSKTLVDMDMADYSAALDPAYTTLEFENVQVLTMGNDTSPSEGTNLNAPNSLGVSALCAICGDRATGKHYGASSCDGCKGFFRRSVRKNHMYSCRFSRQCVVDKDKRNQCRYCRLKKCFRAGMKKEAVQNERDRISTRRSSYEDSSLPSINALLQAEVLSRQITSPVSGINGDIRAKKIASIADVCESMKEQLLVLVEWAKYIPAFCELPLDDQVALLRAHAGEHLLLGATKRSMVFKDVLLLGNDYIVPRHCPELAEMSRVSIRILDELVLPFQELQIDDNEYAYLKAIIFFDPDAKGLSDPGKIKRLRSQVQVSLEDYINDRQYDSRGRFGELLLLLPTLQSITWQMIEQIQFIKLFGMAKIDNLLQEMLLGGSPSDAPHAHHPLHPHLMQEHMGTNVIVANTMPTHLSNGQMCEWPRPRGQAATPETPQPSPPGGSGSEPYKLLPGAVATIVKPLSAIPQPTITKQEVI
# B2AR ag = human beta-2 adrenergic receptor agonism by FAP; P07550; Am2.2-beta2AR cells, FAP receptor internalization, flow cytometry; reference of the scale not given here; response, % (no concentration beside the values); actives 0.43% (n = 340,000); AID 504454;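 active = response above a set limit, near 3 SD of response in nonfluorescent compounds, cut at about 42% in these data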;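 note: stock transfer was 100 nL into about 11 µL; a reference agonist was the positive control; negative values mostly stem from fluorescent compounds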
# Target sequence (P07550 whole entry, looked up): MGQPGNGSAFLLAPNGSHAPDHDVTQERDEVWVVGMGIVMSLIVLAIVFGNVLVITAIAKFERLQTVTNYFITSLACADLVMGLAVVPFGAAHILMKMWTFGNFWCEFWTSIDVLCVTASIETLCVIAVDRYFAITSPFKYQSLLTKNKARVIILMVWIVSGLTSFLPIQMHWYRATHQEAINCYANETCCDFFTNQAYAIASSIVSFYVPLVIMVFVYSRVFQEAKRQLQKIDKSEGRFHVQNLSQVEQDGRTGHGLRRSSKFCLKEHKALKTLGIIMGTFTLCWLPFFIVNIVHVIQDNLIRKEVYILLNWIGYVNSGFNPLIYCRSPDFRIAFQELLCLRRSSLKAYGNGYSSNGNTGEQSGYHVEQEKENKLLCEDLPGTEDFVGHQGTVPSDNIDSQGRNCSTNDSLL
# Calb FLC = C. albicans growth modulation with fluconazole. growth inhibition, % (no concentration beside the values). actives 0.57% (n = 300,000). C. albicans CaCi-2 (fluconazole-resistant clinical isolate) + fluconazole, Alamar Blue growth, 48 h;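 active = most replicates above 75%; inconclusive = exactly half above 75%; inactive = most below 75%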;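 note: all wells also contain fluconazole at 8 µg/ml as a sub-toxic cotreatment; 0% = median of DMSO wells and 100% = median of geldanamycin control wells; wells of about 8 µL received 7.5 nL stock; the first replicate is given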
# LANA-H2B inh = blocks KSHV LANA binding to histone H2A/H2B. Q9QR71. inhibition, % (concentration not given with the values). cell-free LANA-H2A/H2B peptide, fluorescence polarization. actives 0.6% (n = 320,000); in the data active = inhibition mostly above about 10%, no sharp cut-off; inactive = mostly below about 6.7%;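 note: stock transfer was 7.5 nL into about 10 µL; 0% = median of vehicle wells and 100% = median of positive control wells; one replicate is shown; the record names a cut of 25% in any replicate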
# Vif TR-FRET = inhibitors of Vif binding to APOBEC3G peptide, primary screen, biochemical, TR-FRET, GST-Vif 1-94, biotin-A3G peptide, dose response retest (AID 1117319); actives 0.57% (n = 260,000); TR-FRET GST-Vif / biotin-A3G peptide binding; higher % means a stronger effect; test concentration not given here; strong numbers were not always called active; inhibition, %; hits with a dose series show IC50 in µM;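 active = above the screen mean plus three standard deviations and confirmed in dose response; inconclusive = results disagree or hit not tested in dose response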;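 note: Vif residues 1-94 fused to GST binding biotinylated APOBEC3G peptide 110-148; 0% = full assay without inhibitor and 100% = GST in place of GST-Vif; retest series ran down from 100 µM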
# ALR inh = blocks human ALR sulfhydryl oxidase activity; purified ALR, DTT oxidation, H2O2 HRP-luminol luminescence; inhibition, % (no concentration beside the values); actives 3.8% (n = 290,000); P55789;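 active = mean and each replicate at 75% or more; inconclusive = only one of the two met; inactive = neither met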;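 note: stock transfer was 7.5 nL into about 7.5 µL; 0% = neutral wells and 100% = wells with inactivated enzyme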
# Target sequence (P55789 whole entry, looked up): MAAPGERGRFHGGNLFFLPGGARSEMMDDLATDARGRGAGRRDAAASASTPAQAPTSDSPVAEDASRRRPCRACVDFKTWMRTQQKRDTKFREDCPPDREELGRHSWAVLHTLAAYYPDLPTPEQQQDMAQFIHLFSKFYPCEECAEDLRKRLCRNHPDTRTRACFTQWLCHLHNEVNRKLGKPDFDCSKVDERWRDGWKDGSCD
# The depositor's hits bear a star; u = inconclusive; x = not tested or not shown; & = joins results of further samples.
canonical_smiles	RanGTP-Impb inh	HNF4A DNA FP	B2AR ag	Calb FLC	LANA-H2B inh	Vif TR-FRET	ALR inh
Nc1cc(=O)[nH]c(SCC(=O)Nc2ccccc2-c2ccccc2)n1	-2.9	-0.5	0	38	-2.0	-7%	-5
NS(=O)(=O)c1ccc(NC(=S)N2CCc3ccccc32)cc1	6.7	-4.3	-2	20	-1.9	-21%	-4
O=C(COC(=O)COc1ccc(Br)cc1)NCCC1=CCCCC1	0.9	-1.3	3	-6	x	x	x
Cc1cc(C(=O)NCCc2ccc(Cl)cc2)no1	-3.2	1.8	-7	-12	0.6	10%	1
COc1ccc(/C=C(\NC(=O)c2ccc(OC)cc2)C(=O)Nc2cccc(C(=O)O)c2)cc1	u	-4.8	-7	8	0.2	-4%	0
COC(=O)c1ccc(CNC(=O)c2ccc(OC)c(S(=O)(=O)NC3CCCC3)c2)cc1	x	4.8	19	x	-1.1	x	x
Cc1cccc(N(C(=O)CNC(=O)c2ccco2)C(C(=O)NC2CCCC2)c2cccnc2)c1C (stereo not given)	2.3	4.1	5	34	0.0	x	-2
CCOC(=O)CCC(=O)Nc1cc(S(=O)(=O)N2CCOCC2)ccc1N1CCCCC1	x	0.6	2	x	0.4	0%	0
Cc1oc2ccc(NS(=O)(=O)c3ccc(C(C)(C)C)cc3)cc2c1C(=O)Nc1ccccc1	1.3	-1.8	-2	-4	-2.5	1%&3%	-6
CC(=O)Nc1ccc(C(=O)Nc2cccc(S(=O)(=O)NC3=NCCC3)c2)cc1	1.6	-0.5	-5	4	-3.2	6%	-5
CN(Cc1ccccc1Br)C(=O)CSc1nnnn1C1CC1	x	-3.8	8	x	-2.4	0%	-2
CCN(CC)C(=O)c1ccc(-c2ccccc2)cc1	0.7	-3.5	1	-14	-2.2	4%	-6
O=C(COC(=O)c1ccncc1)NCc1ccccc1	2.6	-2.1	-6	6	-2.8	-1%	-1
O=C(CSc1nnc2ccccn12)NC(=O)c1ccccc1	x	1.9	0	x	-1.7	-3%	1
CC(C)OC(=O)c1cc(C(=O)c2cc(Cl)ccc2O)coc1=N	9.0	7.2	2	17	3.4	u	2
O=C(/C=C/c1ccccc1)NC(NC(=S)Nc1cc(Cl)ccc1Cl)C(Cl)(Cl)Cl (stereo not given)	-4.7	1.2	-3	-8	2.8	77%	-7
S=C1NC[C@H](c2ccccc2)N1CCCCC1CCCCC1	u	-0.2	-5	4	-0.7	-5%	x
Cc1cc([N+](=O)[O-])nn1CCCC(=O)Nc1sc2c(c1C(N)=O)CCCC2	-3.1	0.8	-28	-22	-0.3	4%	-3
C=CC[C@H](CC(=O)N(CCO)Cc1ccccc1)C(=O)NCCOC(=O)[C@@H](CC=C)CC(=O)OC(C)(C)C	x	-1.2	2	x	-3.0	x	-10
CN(CC(=O)Nc1cccc(F)c1)CC(=O)N1CCCCC1	x	1.2	-5	x	3.1	x	-4
COC(=O)Cn1c(O)c(N=NC(=O)OC)c2ccccc21	2.2	2.5	-6	-9	1.9	9%	-6
Cc1ccc[n+](-c2[nH]c(=O)sc2/C=N/N=C(\[O-])CCn2c3ccccc3c3ccccc32)c1	-2.5	-7.3	-6	-20	6.5	-1%	-5
CC(C)C(=O)Nc1ccc(C(=O)Nc2nnc(C(C)(C)C)s2)cc1	u	-2.3	-10	11	0.0	-2%	5
O=c1cc(-c2ccc(C3CCCCC3)cc2)[nH][nH]1	0.0	-0.6	25	-7	2.4	-4%	10
CC(C)c1nnc(NC(=O)CCC(=O)N2CCN(Cc3ccc(F)cc3)CC2)s1	12	-2.2	-5	-2	-3.1	x	3
COc1ccc(C=O)cc1C1=CC(=O)C[C@H](c2ccc(Cl)cc2)C1	x	5.1	-1	x	7.9	x	-3
O=C(CCc1nc2ccccc2s1)N1CCN(S(=O)(=O)c2cccs2)CC1	-0.2	-4.5	4	16	-3.1	9%	-3
CCOC(=O)c1cnc2c(-c3ccccc3)c(-c3ccccc3)nn2c1C	2.2	0.9	4	4	2.3	-3%	-6
Clc1ccccc1-c1nnc2n1CCCCC2	-2.6	2.2	3	-3	5.3	-18%	-3
CN(C)c1ccc(/C=C/c2cc[n+](C)cc2)cc1	-9.2	68*	-773	16	-22	-1%	99*
COc1ccc(OC)c(/C=C(\C)C(=O)c2c(C)cc(C)[nH]c2=O)c1	-1.8	1.6	-5	1	-4.0	x	5
COc1ccccc1-n1c(SCC(=O)NC(C)(C)C)nc(O)c(Cc2ccccc2)c1=O	-0.8	1.2	-1	-1	0.9	-2%	9
CC1(C)CC(OC(=O)c2ccco2)CC(C)(C)N1O	5.3	-1.7	4	-1	-1.0	20%	7
O=C1c2ccccc2CCC12N=NCC2c1ccc(Cl)cc1 (stereo not given)	-0.8	0.7	7	-5	-3.3	8%	-12
Cc1ccc(CN2CCN(/N=C/c3ccc(N(C)C)cc3)CC2)cc1	-2.1	-1.4	0	-6	-3.2	-8%	46
Cc1cc(N2C(=O)C(=O)/C(=C(/O)c3ccc(F)cc3)C2c2ccc(F)cc2)no1 (stereo not given)	-1.5	0.6	-19	-1	-2.8	-3%	-3
N/C(=N\OC(=O)c1ccc(Cl)cc1)c1nonc1N	-3.8	-0.9	1	-17	2.2	3%	-5
NC(=O)c1ccc(NC(=O)COC(=O)CCN=C2NS(=O)(=O)c3ccccc32)cc1	x	2.8	3	x	-1.4	-4%	2
C#CCOCCOCCOCCNc1nc(N2CCOCC2)nc(N2CCN(C(=O)[C@H](CCCCN)n3cc([C@@H](N)CC(C)C)nn3)CC2)n1	6.5	3.2	-2	-10	1.4	4%	-3
CC1CN(CCOc2ccc(F)cc2)CC(C)O1 (stereo not given)	-3.1	1.0	-2	-1	0.7	x	3
C#CCOCCOCCOCCNc1nc(N2CCN(C(=O)C([C@@H](C)O)n3cc([C@@H](N)CCCCN)nn3)CC2)nc(N2CCN(C(=O)[C@H](CCC(=O)O)n3cc([C@@H](N)CCCCN)nn3)CC2)n1 (stereo not given in full)	x	7.3	-5	x	-2.0	x	-5
O=C(c1coc2ccc(O)c(CN3CCOCC3)c12)C1CC1	-0.4	0.1	-3	-1	2.9	9%	18
CCC(=O)N(Cc1cccs1)C1CCOC(C)(C)C1 (stereo not given)	x	2.1	12	x	3.1	28%	-2
CCc1cc2cc(C)ccc2nc1SCC(=O)NNC(=O)c1ccco1	3.0	0.4	3	1	-1.3	x	7
COc1ccc(S(=O)(=O)N2CCC(C(=O)N3CCOCC3)CC2)cc1Cl	2.1	1.5	-6	-4	2.1	-2%	-3
CC(=O)c1c(O)cc(C)n(-c2ccc(F)cc2)c1=O	-2.5	4.7	3	-5	-0.4	-8%	-3
Fc1ccc2c(c1)c1n[nH]c(=S)nc1n2CCc1ccccc1	2.7	3.0	4	-3	x	1%	x
CC(=O)c1c(C)[nH]c(C(=O)NCc2cccc(Cl)c2)c1C	0.5	-3.3	2	-3	-0.1	x	x
O=S(=O)(Nc1cccc(S(=O)(=O)N2CCCC2)c1)c1cccs1	x	2.0	7	x	3.2	0%	-10
COc1ccc(OC)c(S(=O)(=O)N2CCC(C(=O)Nc3ccccc3)CC2)c1	1.1	1.2	2	-16	2.0	x	-9
CC(=O)Nc1ccc(C(=O)OCC(=O)N2CCCC2)cc1	2.8	-1.9	7	5	1.0	x	-2
Cc1ccccc1C(=O)N=c1c(C#N)cc2c(=O)n3cccc(C)c3nc2n1Cc1ccco1	110*	x	x	-13	2.6	25%	8
O=C(C1CC1)N1CCC(c2nc(-c3ccc(S(=O)(=O)NCC4CCCO4)cc3)no2)CC1 (stereo not given)	-3.6	0.2	1	-22	4.3	13%&-7%	-7
CCC(=O)Nc1sc2c(c1C(N)=O)CCN(C(C)=O)C2	0.9	0.9	0	-10	3.7	-4%	-33
O=C(CCS(=O)(=O)c1ccc(Br)s1)NC1CCCC1	0.4	-0.5	0	9	5.8	-6%	-4
CCCCn1c(N)c(Sc2ccccc2)c(=O)[nH]c1=O	x	0.0	2	-8	-2.5	1%	-5
Cc1c(NC(=O)COC(=O)c2cc(-c3cccc4ccccc34)nc3ccccc23)c(=O)n(-c2ccccc2)n1C	-1.5	-14	-15	23	-3.7	x	-1
COc1ccc(N=Nc2cc(OC)c(N)cc2OC)cc1	x	14	18	x	x	-5%	x
CCc1ccc(N(CC(=O)NCC2CCCO2)C(=O)CCC(=O)Nc2nccs2)cc1 (stereo not given)	-3.0	1.8	4	8	0.1	x	0
Cn1c(C(=O)NCCN2CCN(c3ccccc3F)CC2)cc2c(=O)n(C)c3ccccc3c21	5.0	-0.7	-2	33	-7.0	29%	-12

# The results go on:
canonical_smiles	RanGTP-Impb inh	HNF4A DNA FP	B2AR ag	Calb FLC	LANA-H2B inh	Vif TR-FRET	ALR inh
NNC(=O)Cc1cn(-c2ncc(C(F)(F)F)cc2Cl)c2ccccc12	3.6	-2.0	6	-1	0.0	0%	x
Cc1ccc(S(=O)(=O)N(C)C(C)CCc2ccco2)cc1 (stereo not given)	x	-3.3	-4	x	-4.7	3%	x
CC1(C)Cc2ccccc2C(/C(C#N)=N/O)=N1	0.5	4.1	3	3	-1.5	9%	11
CCc1ccc(OCC(=O)Nc2ccc(S(=O)(=O)N3CCOCC3)cc2)cc1	4.1	3.8	-5	6	x	0%	x
CCN(CC(=O)Nc1c(F)cccc1F)C(=O)C1=COCCO1	-2.9	-1.7	-3	4	-1.8	-10%	7
COc1ccc2c(c1)[C@H]1[C@H](CO2)[C@H](c2ccccc2)[C@]2(C)C(=O)Nc3cc(F)ccc3C(=O)N12	x	-3.4	0	x	2.2	x	0
C/C(=N/NC(=O)CCC(=O)Nc1cccc(Cl)c1)c1ccc(C)cc1	u	-0.4	0	-27	-6.7	-2%	2
CCOC(=O)c1c(C)[nH]c(C)c1S(=O)(=O)N1CCCCC1	-0.6	-0.8	4	-7	3.9	x	-2
S=C(NCc1ccccc1)Nc1cccc2cnccc12	1.3	5.0	-4	19	-1.1	x	-25
OCC1(Cc2ccc(F)cc2)CCCN(CCCC(F)(F)F)C1 (stereo not given)	3.3	3.4	-4	5	-2.8	x	-2
Cc1cccc(-c2noc(CNS(=O)(=O)c3ccccc3)n2)c1	10	8.8	7	-12	0.1	x	37
C[N+](C)(CC#Cc1ccccc1)CC(=O)c1ccc(Cl)cc1	4.7	2.2	-3	-32	6.9	-7%	-2
N#CCCN(C(=O)COC(=O)COc1ccccc1Cc1ccccc1)c1ccccc1	x	2.5	-2	x	0.6	-9%	x
COc1ccc(NC(=O)NC(=O)c2cc(OCC(F)(F)F)ccc2OCC(F)(F)F)cc1	0.8	-3.1	-12	1	-3.8	0%	0
CCc1ccc([C@@H]2CC=C(C(=O)O)[C@H](c3ccc(C(C)(C)C)cc3)N2S(=O)(=O)c2ccc(C)cc2)cc1	x	-24	5	x	-2.7	4%	x
COc1ccccc1NC(=O)Nc1cc(F)ccc1F	x	2.2	-6	-5	1.4	13%	-4
COc1cc(C)c(C)cc1S(=O)(=O)N1CCCCC1c1cccnc1 (stereo not given)	7.5	-0.6	2	10	3.4	-10%	-7
O=C(CSc1nnc(-c2cccc(F)c2)o1)Nc1nncs1	-3.5	-0.6	2	-1	0.5	20%	25
COc1ccc2cc(C#N)c(N3CCN(Cc4nnnn4CCC(C)C)CC3)nc2c1	-5.2	0.2	x	-8	-6.6	-11%	-10
Clc1ccc2nncn2n1	-1.3	5.2	3	-11	-0.9	x	-6
O=C1CCN(Cc2ccc(Br)cc2)CCN1CCO	-2.5	16	1	11	-1.0	x	-3
OCC[C@@H]1C[C@H](O)[C@@H](O)[C@@]2(Cc3ccccc3CCO2)O1	10	2.7	-3	0	-0.1	x	-1
